VACV mCherry inh = inhibitors of vaccinia virus infection (mCherry reporter signal) | Vaccinia virus mCherry reporter infection, fluorescence; about a quarter of the inactives have no number | Potency, µM (titrated, usually from 36.5 µM), without a hit: top-dose activity change, negative = inhibition, hits mostly inhibitors | 310,000 tested, 0.63% active | AID 720579; active = well fitted inhibition curve with a large enough effect; inconclusive = small, poorly fitted or top-dose-only effect; inactive = no such curve, though single readings can be large or run the other way; tested in A549 cells; further: nearly all actives have a fitted effect of over 35% in size; inactives centre near -10
Vaccinia Venus = vaccinia inhibition (Venus reporter) | Potency, µM (highest dose often 36.5 µM), without a hit: at the top dose activity change, negative = inhibition, usual class: inhibitors | Vaccinia virus Venus reporter expression, fluorescence | 330,000 tested, 0.46% active; active means well fitted inhibition curve with a large enough effect; inconclusive means small, poorly fitted or top-dose-only effect; inactive means no such curve, though single readings can be large or run the other way; tested in A549 cells; further: nearly all actives have a fitted effect of over 30% in size; inactives centre near -10
Active calls of the source: *; i = inactive; ? = inconclusive; / = no result given; & = joins results of further samples; [ ] = dose if it differs, or a comment. On the % scale 0 is the no-effect control and ±100 the full control effect; potency means the concentration at half of the fitted maximal effect. This is a random part of the collection; about 0.87% have a hit in one of these screens.

Molecule | VACV mCherry inh | Vaccinia Venus
COc1ccc(C(=O)N2CCC(c3nc(-c4ccc(S(=O)(=O)N5CCCC5)cc4)no3)CC2)cc1 | ? | -21%
CN(C)C1(CNC(=O)CC(NC(=O)c2ccccc2Cl)c2ccccc2)CCCCC1 (configuration not stated) | i | 1%
CCOc1ncccc1C(=O)NCC(c1ccco1)N1CCCCC1 (configuration not stated) | -20% | -10%
COc1cc(/C=C(\NC(=O)c2ccccc2)C(=O)NCC(=O)O)c([N+](=O)[O-])cc1OC | i | -7%
CN(C[C@H](Cc1ccccc1)N(C[C@H](Cc1cccc2ccccc12)N(CCc1ccccc1)N=O)N=O)N=O | ? | -14%&-12%
Cc1ccc(S(=O)(=O)n2[nH]c(=O)cc2N)cc1 | i | -16%
O=C(CSc1nnc(-c2ccncc2)n1CC1CCCO1)NCc1ccccc1 (configuration not stated) | -10% | -6%
COc1ccc(N2CCN(C(=O)CN3CCSc4ccccc43)CC2)cc1 | -2% | 9%
CN1CCC(=NNC(=O)CSCc2ccccc2)CC1 | -2% | -6%
O=C(NCC1COc2ccccc2O1)C1CCC(CNc2c(N3CCCCC3)c(=O)c2=O)CC1 (configuration not stated) | 22% | 1%
COc1ccc(C2C=C(C)Nc3nc(SC)nn32)cc1 (configuration not stated) | / | -23%
Clc1ccc(/C=N/Nc2nnc(Cl)c3ccccc23)cc1 | -13% | -9%
COc1cc(C(C)=O)ccc1OCC(O)CN1CCN(c2ccc(C)cc2C)CC1 (configuration not stated) | -2% | -12%
COc1ccc(CN2CCC(CO)(CCOc3ccccc3)CC2)c(OC)c1C | -17% | -11%
O=C(COC(=O)c1cccnc1Nc1cccc(C(F)(F)F)c1)NC1CCS(=O)(=O)C1 (configuration not stated) | -1% | -26%
NCC(=O)c1ccc2ccccc2c1 | 8% | -5%
CCOC(=O)Cc1c(C)[nH]n(-c2ccccc2)c1=O | -1%[7.34 µM] | -10%[7.34 µM]
O=C(NCCS(=O)(=O)N1CCN(c2ccccc2F)CC1)c1cc(=O)c2ccccc2o1 | -24% | -16%[7.34 µM]
Cc1ccc(S(=O)(=O)N2CCC(=O)N([C@H](COCc3cccc(C)c3)C(C)C)CC2)cc1 | -11% | -11%
Cc1ccc(/C=C/C(=O)OCC(=O)Nc2cccnc2Cl)o1 | 0% | -11%

Further structures:
Molecule | VACV mCherry inh | Vaccinia Venus
COc1ccc(CCNC(=O)CCn2c(=O)c3ccccc3n(CC(=O)NCC3CCCO3)c2=O)cc1OC (configuration not stated) | -7% | 4%
Cc1ccc(S(=O)(=O)c2cc3ccccc3oc2=Nc2ccc3c(c2)OCCO3)cc1 | i | -9%
Cc1cccnc1NC1=NCC(C)S1 (configuration not stated) | -4% | -14%
C[C@H](CO)N1C[C@H](C)[C@@H](CN(C)C(=O)Nc2ccc(C(F)(F)F)cc2)Oc2c(NC(=O)Nc3ccc4c(c3)OCO4)cccc2C1=O | i | ?
CCn1cc(/C=C(\NC(=O)c2ccccc2)C(=O)NCCCn2ccnc2)c2ccccc21 | -4% | -27%
O=c1[nH]c(C(F)(F)C(F)(F)C(F)(F)F)no1 | -13% | -6%
CC(=O)Nc1ccc(C(=O)OCc2ccc(F)cc2Cl)cc1 | -22% | -23%
O=C(CN1C(=O)NC2(CCCC2)C1=O)N1CCN(S(=O)(=O)c2ccccc2Br)CC1 | -13% | -29%
Cc1ccc2nc(NC(=O)Cn3cc4c(n3)CCCCC4)sc2c1 | i | -5%
O=C(Cn1cnc2ccccc21)N/N=C/c1cccnc1 | i | -11%
C[C@]12CCC(=O)CC1CCC1C2CC[C@]2(C)C(OC(=O)CCC(=O)O)CCC12 (some centres not stated) | -3% | -6%
COc1ccccc1CCc1nnc(CCC(=O)NC(C)Cn2nc(C)cc2C)o1 (configuration not stated) | -17% | 0%
CC(=O)c1ccc(N2CCN(c3ccc4cc(S(=O)(=O)N5CCCCC5)ccc4n3)CC2)cc1 | ? | ?
O=C(CCCN1C(=O)/C(=C/c2ccc(F)cc2)SC1=S)NCCCn1ccnc1 | 33%[activator] | 232%[activator]
CSc1ncccc1C(=O)Nc1ccccc1N1CCOCC1 | -14% | -8%
CC(=O)N(CN1C(=O)C2C3C=CC(C3)C2C1=O)c1cccc(Cl)c1 (configuration not stated) | -3% | -7%
CCn1cc2nc(SCc3cccc(C)c3)n(CCc3ccccc3)c(=O)c2n1 | -13% | -3%
COc1ccc(OC)c2c1C(=O)c1ccccc1C2=O | -5% | 77%[activator]
COc1ccc(-c2csc(NC(CO)c3nc4ccccc4n3CCOCCO)n2)cc1 (configuration not stated) | ? | -6%
COc1ccc(C(=O)N2CCCC(CO)(Cc3ccccc3C)C2)o1 (configuration not stated) | -8% | -12%

(more compounds)
Molecule | VACV mCherry inh | Vaccinia Venus
CCOc1ccc(/C=N/NC(=O)C(OC)c2ccccc2)cc1 (configuration not stated) | -10% | -6%
O=C(Nc1ccc2nc3n(c(=O)c2c1)CCCCC3)c1cccc(C(F)(F)F)c1 | ? | ?
COc1ccc2nc(NC(=O)CNS(=O)(=O)c3cccs3)sc2c1 | -2% | -19%
CCOc1ccccc1NC(=O)c1nnn(-c2ccc3c(c2)OCCO3)c1N | ? | -28%
N#Cc1c(-c2ccc(Cl)cc2)c2c([nH]c1=O)-c1ccccc1OC2 | -12% | -11%
CC(C)C(OC(=O)c1ccco1)C(=O)NCc1cccs1 (configuration not stated) | -11% | -3%
CCOC(=O)C1(C)CCN1C(=O)c1ccc2c(c1)CCO2 (configuration not stated) | 18% | 1%
CCOCCCNC(=O)C(c1ccc(C)cc1)N(Cc1ccc2c(c1)OCO2)C(=O)c1cnccn1 (configuration not stated) | 0% | 14%
Cc1ccccc1Oc1nc2c(C)cccn2c(=O)c1/C=C(\C#N)C(=O)NC1CCS(=O)(=O)C1 (configuration not stated) | i | -9%
CC(C)CN(C(=O)c1ccc2c(c1)OCO2)C1CCS(=O)(=O)C1 (configuration not stated) | i | 1%
O=C(CSc1nc2nccnc2c(=O)n1CCc1c[nH]c2ccccc12)Nc1ccccc1 | -2% | -2%
CCCC(=O)N(CCc1ccccc1)Cc1nc2ccccc2c(=O)[nH]1 | -15% | -10%
Fc1ccc(-c2noc3ncnc(NCCCN4CCN(c5ccccc5)CC4)c23)cc1 | -5% | -9%
CCN(CC(=O)NCc1ccc(F)cc1)C(=O)/C=C/c1ccc(OC)c(S(=O)(=O)NC(C)C)c1 | -21% | -28%
O=C(COC(=O)c1ccccc1C(=O)N1CCN(c2ccccc2)CC1)Nc1ccccc1 | -13% | -17%
CC(C)CC(=O)NCC(c1ccc2c(c1)OCO2)N1CCN(c2ccccc2)CC1 (configuration not stated) | -10% | -6%
COc1cc(NC(=O)CN2C(=O)C(c3ccc(C)cc3)=NC23CCCCC3)cc(OC)c1 | -20% | -19%
COc1cc(OC)c(NC(=O)Cn2cnc3sc(C)c(S(=O)(=O)N4CCOCC4)c3c2=O)cc1Cl | ? | -21%
COc1ccc(C(=O)NC(CC(=O)O)c2cc([N+](=O)[O-])ccc2Cl)c(SC)c1 (configuration not stated) | -4% | 6%
Cc1ccc2c(c1)N(S(=O)(=O)c1cc(-c3onc(C)c3C)ccc1C)CCO2 | -24% | -19%&-12%

Whole records, quoted from the list:
`COc1ccc(CCNC(=O)CCn2c(=O)c3ccccc3n(CC(=O)NCC3CCCO3)c2=O)cc1OC` (configuration not stated) as listed: VACV mCherry inh = -7%; Vaccinia Venus = 4%
`CCOCCCNC(=O)C(c1ccc(C)cc1)N(Cc1ccc2c(c1)OCO2)C(=O)c1cnccn1` (configuration not stated) as listed: VACV mCherry inh = 0%; Vaccinia Venus = 14%
`CC(C)CN(C(=O)c1ccc2c(c1)OCO2)C1CCS(=O)(=O)C1` (configuration not stated) as listed: VACV mCherry inh = i; Vaccinia Venus = 1%

Next section.
Molecule | VACV mCherry inh | Vaccinia Venus
Cc1nnc(SCC(=O)c2c(N)n(C3CC3)c(=O)[nH]c2=O)n1C | -6% | -5%
Cc1cccc(NC(=O)c2cc(CN3CCOCC3)on2)c1C | 5% | -11%
CCOC(=O)c1cc(S(=O)(=O)NC2CCC(C)CC2)cn1C (configuration not stated) | -3% | -18%
O=S(=O)(NCc1ccco1)c1ccc(Cl)cc1Cl | -8% | 4%
FC(F)(F)c1cccc(C2NCc3ccccc3-n3cccc32)c1 (configuration not stated) | ? | -25%
Cc1ccc(OCC(=O)N(Cc2cccc(Cl)c2)C2CCS(=O)(=O)C2)cc1C (configuration not stated) | -15%[7.34 µM] | -8%[7.34 µM]
Cc1ccc(C)c(N2CCN(C(=O)CCC(=O)Nc3nnc(CC(C)C)s3)CC2)c1 | -26% | -5%
O=C(N/N=C/c1cccc(O)c1)c1ccc(-n2cnnn2)cc1 | -9% | -4%
CCn1c(SCC(=O)NCC2CCCO2)nnc1-c1ccc(S(=O)(=O)N2CCN(C)CC2)cc1 (configuration not stated) | -8% | -4%
CN(C)Cc1nnnn1-c1ccccc1 | i | -6%
CN1C(=O)CC(C(=O)O)SC1=Nc1ccc(F)cc1 (configuration not stated) | -13% | -17%
COCCNc1nc(NCCNC(C)=O)c2sc(-c3ccccc3)cc2n1 | -6% | -29%
CCOC(=O)C(NC(C)=O)C(OC(C)=O)c1cccc(N(CCCl)CCCl)c1 (configuration not stated) | / | -24%
O=C1NC[C@@H](CCCCN2C[C@H](Cc3ccc(O)cc3)N(Cc3ccccc3)C(=O)C2=O)N(CCc2ccc(O)cc2)C1=O | -8% | -6%
O=C(CCCCCN1C(=O)c2cccc([N+](=O)[O-])c2C1=O)NCCc1ccccc1 | i | -13%
COc1ccc(C2=NN(C(=O)c3cccc([N+](=O)[O-])c3)C(c3cccc([N+](=O)[O-])c3)C2)cc1 (configuration not stated) | -5% | -6%
CCc1nc2cccnc2n1-c1ccc(CC(=O)O)cc1 | 0% | 6%
Cc1noc(C)c1S(=O)(=O)N(CC(=O)NCc1ccccc1Cl)c1ccc(C(C)C)cc1 | -10% | ?
COc1cc(N)c2ncccc2c1Br | ? | 63%[activator]
N#C/C(=C1\CCCN1)c1nc(-c2ccccc2)cs1 | -14% | -14%

Additional compounds follow.
Molecule | VACV mCherry inh | Vaccinia Venus
CCCC(=O)N1CCCC1(C)C(=O)NCCc1ccccn1 (configuration not stated) | 7% | 1%
O=C(OC(C(=O)Nc1ccc(Cl)c(C(F)(F)F)c1)c1ccccc1)C1=COCCO1 (configuration not stated) | -21% | -25%
COc1ccc(NC(=O)CN(C)C(=O)CCCc2nc3ccccc3s2)cc1 | -8% | -28%
Cc1cccc(C(=O)O/N=C2/CC3CCC2(C)C3(C)C)c1 (configuration not stated) | i | -9%
COc1cccc(-n2c(O)c(C=NCCN3CCNCC3)c(=O)[nH]c2=S)c1 | i | -6%
CCC(NC(=O)c1ccc([N+](=O)[O-])cc1[N+](=O)[O-])c1ccccc1 (configuration not stated) | -12% | -18%
Cn1c(=O)[nH]c(=O)c2c1nc([N+](=O)[O-])n2Cc1ccccc1 | ? | 10µM*
O=C(O)c1cc(-c2ccc(/C=C3/SC(=S)N(Cc4ccccc4)C3=O)o2)ccc1Cl | i | 29%
Cc1nnc(SCC(=O)NCCN2C(=O)CSC2=O)n1-c1ccccc1 | -6% | -8%
C[C@H](CO)N1C[C@H](C)[C@@H](CN(C)C(=O)Nc2ccc(C(F)(F)F)cc2)Oc2c(NS(=O)(=O)c3ccc(F)cc3)cccc2C1=O | -2% | -10%
O=C(NCc1ccccc1Cl)[C@H]1CCCN1C(=O)[C@H]1CCCN1C(=O)c1ccccc1 | 2% | 5%
COc1ccc2cc(CCNS(=O)(=O)c3ccc(NC(C)=O)cc3)c(=O)[nH]c2c1 | -7% | 1%
CCOC1=C2CN(S(=O)(=O)c3ccc(C)cc3)[C@@H](c3ccccc3)C[C@H]2[C@H]2C(=O)N(c3ccccc3)C(=O)[C@H]2C1 | 34%[activator] | -8%
Cc1ccc(NC(=O)COC(=O)CCOc2ccccc2C)cc1 | i | -10%
O=C(COC(=O)/C=C/c1ccc(F)cc1)Nc1cccc(S(=O)(=O)N2CCCC2)c1 | -8% | -13%
Cc1ccc2nc(NC(=O)CSc3cc(C)[nH]c(=O)n3)sc2c1 | -15% | 0%
CCN(C[C@H]1N[C@@](CC)(C(=O)OC)[C@H]2C(=O)N(C)C(=O)[C@@H]12)C(=O)c1ccc(F)cc1 | -8% | 8%
CCOCCn1c(N2CCN(c3ccccc3)CC2)nc2c1c(=O)[nH]c(=O)n2C | i | -4%
COC(=O)C1=C(c2cc3ccccc3o2)C[C@@H]2CC[C@H]1N2C(=O)NCc1ccccc1 | ? | ?
CC(=O)Nc1cc2nc(C)n(Cc3ccccc3)c2nc1C | i | -9%
Cc1ccc(S(=O)(=O)N2CCN(CCOc3ccccc3)CC2)cc1 | i | -8%
CCN1CCN(c2cc(C)c3cc(NC(=S)N4CCN(c5ccc(F)cc5)CC4)ccc3n2)CC1 | -1% | -7%
O=C(NCCOc1ccccc1)C1CCCCC1 | -14% | -4%

Look-ups from the entries so far:
VACV mCherry inh with `Cc1nnc(SCC(=O)NCCN2C(=O)CSC2=O)n1-c1ccccc1` is entered as -6%
VACV mCherry inh with `O=C(NCc1ccccc1Cl)[C@H]1CCCN1C(=O)[C@H]1CCCN1C(=O)c1ccccc1` is entered as 2%

Bioassay records deposited in PubChem BioAssay by National Center for Advancing Translational Sciences (NCATS).
